GCN5L2 inh – qHTS Assay for Inhibitors of GCN5L2; GCN5L2 HAT assay, ThioGlo1 CoA-SH fluorescence; 0.21% of 390,000 active; Histone acetyltransferase KAT2A (Homo sapiens), Q92830; AID 504327, 2011; Potency, µM (doses to about 58.9 µM), inactives show top-dose activity change, negative = inhibition, usual class: inhibitors
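Fluorescence readout, Ex340nm/Em540nm: ThioGlo1 (50uM final) reacts with free CoA thiol released as 20nM GCN5L2 acetylates H3(1-25) peptide (75uM) using acetyl-CoA (70uM). Compound and enzyme sat 15 min beforehand; 20 min room-temperature reaction.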
FEN1 inh – qHTS Assay for the Inhibitors of Human Flap endonuclease 1 (FEN1); 0.35% of 390,000 active; Recombinant FEN1 flap cleavage, fluorescence, 15 min; AID 588795, 2011; Potency, µM (top dose mostly 114 µM), for the others: at the highest dose activity change, negative = inhibition, usual class: inhibitors; P39748; also: nearly all actives have a fitted effect of over 65% in size
Target sequence (P39748 whole entry, looked up): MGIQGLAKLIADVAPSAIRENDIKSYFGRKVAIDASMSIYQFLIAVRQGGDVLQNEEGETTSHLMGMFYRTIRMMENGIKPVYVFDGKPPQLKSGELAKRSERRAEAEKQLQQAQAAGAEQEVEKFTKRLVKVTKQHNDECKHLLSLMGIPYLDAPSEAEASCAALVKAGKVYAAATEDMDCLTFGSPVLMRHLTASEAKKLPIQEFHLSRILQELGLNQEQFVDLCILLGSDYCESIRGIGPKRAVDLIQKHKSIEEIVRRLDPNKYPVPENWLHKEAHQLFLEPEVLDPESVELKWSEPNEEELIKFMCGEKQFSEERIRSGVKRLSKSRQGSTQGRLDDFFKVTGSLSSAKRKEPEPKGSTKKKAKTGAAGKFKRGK
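Reaction started by adding substrate (50 nM final) to 10 nM enzyme after 15 min room-temperature compound preincubation. Reads at 0 and 15 min, with data normalized and fitted to a four-parameter Hill equation.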
Active calls of the source: *; ? = inconclusive; / = not tested or not shown; & = joins results of further samples; [ ] = another dose, or the depositor's remark. Calls follow the shape of the dose curve; as a rule, active = well fitted curve in the direction sought with a large enough effect; inconclusive = small, poorly fitted or top-dose-only effect, or another doubt; inactive = no such curve, though single readings can be large; an effect the other way counts as inactive or inconclusive. % is scaled to controls: 0 for no effect and ±100 for the full control effect; potency is read from the fitted curve at half-maximal effect. An excerpt; most or all hits stand in other tables.

SMILES	GCN5L2 inh	FEN1 inh
O=C(NCC1CCCO1)c1cccc(Oc2ccc([N+](=O)[O-])cc2)c1 (configuration not stated)	-0.5%	0.1%
Cc1ccc(-c2nonc2NC(=O)c2ccco2)cc1	-1.2%	-1.6%
Cc1c(NC(=O)NC(=O)c2ccc(F)cc2)c(=O)n(-c2ccccc2)n1C	-3.1%	-20.1%
O=C(NCCc1ccccc1)C1CCN(C2CCN(Cc3ccco3)CC2)CC1	-4.8%	-7.1%
C[C@]12CCC(=O)C=C1CCC1C2C(O)C[C@]2(C)C1CC[C@]2(O)C(=O)CO (some centres not stated)	-12.4%	/
CCn1cc(CN2CCN(Cc3ccccc3)C(CCO)C2)c2ccccc21 (configuration not stated)	-5.3%	-4.6%
Cn1cnnc1SCC(=O)NCCc1ccc(Cl)cc1Cl	-1.4%	-5.1%
O=C(CSc1n[nH]c(=O)n1C1CC1)Nc1ccc(Cl)c(Cl)c1	-2.7%	4.9%
CC(OC(=O)c1cccc([N+](=O)[O-])c1)C(=O)NCc1ccc2c(c1)OCO2 (configuration not stated)	-3.9%	-12.3%
COc1cc2c3cc1Oc1cc(ccc1O)C[C@@H]1c4c(cc(OC)c(O)c4Oc4ccc(cc4)C[C@@H]3N(C)CC2)CC[N+]1(C)C	13.1%	/
Cc1cc(C)nc(N/N=C/c2ccccc2OCc2ccc(Br)cc2)n1	0.1%	-0.2%
CN1CCN(c2ccnc(-c3cccc(NS(C)(=O)=O)c3)n2)CC1	-8.4%	/
COc1ccc(CCNC(=O)c2ccc(Cn3c(=O)c4ccccc4n(Cc4ccc(C)cc4)c3=O)cc2)cc1OC	0.2%	17.3%
Cc1csc2nc(COc3ccc(NC(=O)COc4ccc(F)cc4)cc3)cc(=O)n12	-8.8%	-9.1%
CN(c1ccc(C(=O)NCc2cccs2)cc1)S(=O)(=O)c1ccccc1	-0.8%	-16.4%
COc1ccc(NC(=O)c2ccccc2NS(=O)(=O)c2ccc(C)cc2)c([N+](=O)[O-])c1	-6.0%	0.5%
COc1cc(OC)cc(-c2cc3nc(C)c(CCC(=O)Nc4ccc(C(C)=O)cc4)c(C)n3n2)c1	-4.6%	-6.7%
CCOC(=O)N1CCN(c2c(N3CCN(c4ccccc4OC)CC3)c(=O)c2=O)CC1	-8.5%	-16.5%
CCOc1cccc(N2C(=O)CC(NNC(=O)c3ccc(Br)o3)C2=O)c1 (configuration not stated)	-2.7%	1.3%
CCN(Cc1ccc2c(c1)OCCO2)C(=O)CN1C(=O)NC2(CCc3ccccc32)C1=O (configuration not stated)	-5.2%	-2.8%
O=C(Nc1ccc(F)cc1)C(Sc1nc2ccccc2[nH]1)c1ccccc1 (configuration not stated)	-0.4%	-6.5%
COc1ccc(S(=O)(=O)n2nc(OC(=O)c3ccncc3)cc2N)cc1	-1.7%	-8.7%
O=C(c1cccnc1)N1CCc2ccccc2C1	-1.7%	3.9%
CC(=O)N1CCN(c2ccc([N+](=O)[O-])cc2C#N)CC1	-0.7%	14.1%
COc1cc(O)c(C(CC(=O)N2CCCC2)c2ccc3c(c2)OCO3)c(OC)c1 (configuration not stated)	-2.7%	-26.7%&11.6%
CCOC(=O)[C@@H]1[C@H]2COc3ccc(Br)cc3[C@@H]2N2C(=O)N(c3ccc(OC)cc3)C(=O)[C@@]12C	-5.2%	-10.5%
CCCOc1ccc(-c2c(C(=O)N/N=C(\C)c3ccncc3)nnn2-c2nonc2N)cc1	3.8%	-6.4%
COc1ccc(CNS(=O)(=O)c2ccc(F)c(C(=O)Nc3ccc(OC)cc3)c2)cc1	-8.1%	-13.9%
Cc1ccc(S(=O)(=O)CC(=O)Nc2sc3c(c2C#N)CCCC3)cc1	-4.8%	15.8%
Cc1ccc(S(=O)(=O)Nc2ncnc3sc(C)c(C)c23)cc1	-1.6%	-5.4%
FC(F)(F)c1nc(NCC2CCCO2)c2nnn(Cc3ccccc3Cl)c2n1 (configuration not stated)	-3.1%	18.1%
COc1ccccc1[N+](=O)[O-]	-1.2%	-13.3%
CC(=O)c1cc(Cl)ccc1OCC(=O)Nc1cccc(S(=O)(=O)N2CCCC2)c1	-6.4%	1.0%
Cn1c(=O)cc(-c2ccccc2)c2ccccc21	-2.2%	-5.7%
O=C(COC(=O)c1c2c(nc3ccccc13)CCN(Cc1ccccc1)C2)Nc1c(F)cccc1F	-12.6%	-4.2%
O=C1c2ccccc2C(=O)N1c1n[nH]c(CCc2ccccc2)n1	-2.3%	-6.3%
CCN1CCN(c2c(Cl)cccc2NC(=O)c2ccc3c(c2)OCCO3)CC1	-6.7%	-7.6%
CCOC(=O)c1c(NC(=O)Cc2coc3cc(C)ccc23)sc2c1CCCC2	-6.9%	-2.4%
C/C=C(\C)C(=O)OC1[C@H](OC(C)=O)C2(CO)C(CC1(C)C)C1=CCC3C4(C)CCC(O[C@@H]5O[C@H](C(=O)O)[C@@H](O[C@@H]6O[C@H](CO)[C@@H](O)[C@H](O)[C@H]6O)[C@H](O)[C@H]5O[C@H]5O[C@H](CO)[C@@H](O)[C@H](O)[C@H]5O)[C@](C)(CO)C4CCC3(C)[C@]1(C)C[C@H]2O (some centres not stated)	/	1.4%
COc1ccc(/C=N/Nc2nc(-c3cccc(S(=O)(=O)N4CCCC4)c3)cs2)cc1OC	-4.9%	7.7%
COc1ccc(NC(=S)N2CCCC2)cc1	1.4%	-3.1%
Nc1nonc1-n1nnc(C(=O)N/N=C/c2ccncc2)c1CSc1ccccc1	0.0%	17.6%
COc1ccc(N(CC(=O)Nc2ccccc2C(=O)NCCc2ccccc2)S(C)(=O)=O)cc1OC	-10.5%	5.3%
CC(=O)Nc1c(O)nc(SCC(=O)Nc2c(C)cccc2C)[nH]c1=O	-2.0%[0.501 µM]	-5.0%
COc1ccccc1CC(=O)N1CCN(S(=O)(=O)c2ccccc2)CC1	-24.1%	-11.1%
Cc1cc(C)cc(NC(=O)CN(C)CC(=O)N(CC(C)C)c2c(N)n(CC(C)C)c(=O)[nH]c2=O)c1	1.7%	-3.9%
COc1ccc(N2C(N)=C(C#N)C(c3cccnc3)C3=C2CC(C)(C)CC3=O)cc1 (configuration not stated)	-2.4%	-3.8%
CCSc1ccc([C@@H]2[C@@H]3C(=O)N(C)C(=O)[C@@H]3[C@]3(C(=O)OC)CCCCN23)cc1OC	-10.9%	-7.7%
CC(NC(=O)c1ccccc1Cl)C(=O)N1CCN(Cc2ccc3c(c2)OCO3)CC1 (configuration not stated)	-4.0%	-5.3%
CCOC(=O)CN1CC23C=CC(O2)C(C(=O)Nc2ccc(OC)cc2OC)C3C1=O (configuration not stated)	-5.8%	20.4%
COC(=O)c1ccc(CNC(=O)COC(=O)CCC2CCCC2)cc1	2.0%	-3.9%
COc1ccccc1CNC(=O)c1cc(-c2ccccc2)n(Cc2cc(C)no2)n1	-4.4%	-4.8%
COc1cccc(NC(=O)CSCC(=O)O)c1	-6.2%	-2.0%
Cc1cccc(OCC(=O)Nc2c3c(nn2C(C)(C)C)CS(=O)(=O)C3)c1	0.3%	-5.5%
Cc1ccc(OCCNC(=O)C2CCCCC2)cc1	36.3%[activator]	5.0%
Cc1cc(SCC(=O)c2ccccc2)nc(=O)[nH]1	-14.2%	12.1%
CNC(=O)c1c(NC(=O)c2cccc(N3C(=O)CCC3=O)c2)sc2c1CCCC2	-9.6%	-5.4%
CCOC(=O)Cc1csc(NC(=O)c2cccnc2)n1	-8.4%	2.4%
COc1ccc(/C=C/C(=O)Oc2ccc(C)c(C)c2)cc1OC	-17.4%	-17.7%
COCCCN1C(=O)C(=O)/C(=C(/O)c2ccc(OC)cc2)C1c1ccc(O)c(OC)c1 (configuration not stated)	-3.9%	1.0%

Pulled one by one from the list above (two):
SMILES	GCN5L2 inh	FEN1 inh
COc1ccc(N2C(N)=C(C#N)C(c3cccnc3)C3=C2CC(C)(C)CC3=O)cc1 (configuration not stated)	-2.4%	-3.8%
Cc1cc(SCC(=O)c2ccccc2)nc(=O)[nH]1	-14.2%	12.1%

An excerpt taken from the entries so far:
SMILES	GCN5L2 inh	FEN1 inh
O=C(NCC1CCCO1)c1cccc(Oc2ccc([N+](=O)[O-])cc2)c1 (configuration not stated)	-0.5%	0.1%
Cc1ccc(-c2nonc2NC(=O)c2ccco2)cc1	-1.2%	-1.6%
Cc1c(NC(=O)NC(=O)c2ccc(F)cc2)c(=O)n(-c2ccccc2)n1C	-3.1%	-20.1%
O=C(NCCc1ccccc1)C1CCN(C2CCN(Cc3ccco3)CC2)CC1	-4.8%	-7.1%
C[C@]12CCC(=O)C=C1CCC1C2C(O)C[C@]2(C)C1CC[C@]2(O)C(=O)CO (some centres not stated)	-12.4%	/
CCn1cc(CN2CCN(Cc3ccccc3)C(CCO)C2)c2ccccc21 (configuration not stated)	-5.3%	-4.6%
Cn1cnnc1SCC(=O)NCCc1ccc(Cl)cc1Cl	-1.4%	-5.1%
O=C(CSc1n[nH]c(=O)n1C1CC1)Nc1ccc(Cl)c(Cl)c1	-2.7%	4.9%
CC(OC(=O)c1cccc([N+](=O)[O-])c1)C(=O)NCc1ccc2c(c1)OCO2 (configuration not stated)	-3.9%	-12.3%
COc1cc2c3cc1Oc1cc(ccc1O)C[C@@H]1c4c(cc(OC)c(O)c4Oc4ccc(cc4)C[C@@H]3N(C)CC2)CC[N+]1(C)C	13.1%	/
Cc1cc(C)nc(N/N=C/c2ccccc2OCc2ccc(Br)cc2)n1	0.1%	-0.2%
CN1CCN(c2ccnc(-c3cccc(NS(C)(=O)=O)c3)n2)CC1	-8.4%	/
COc1ccc(CCNC(=O)c2ccc(Cn3c(=O)c4ccccc4n(Cc4ccc(C)cc4)c3=O)cc2)cc1OC	0.2%	17.3%
Cc1csc2nc(COc3ccc(NC(=O)COc4ccc(F)cc4)cc3)cc(=O)n12	-8.8%	-9.1%
CN(c1ccc(C(=O)NCc2cccs2)cc1)S(=O)(=O)c1ccccc1	-0.8%	-16.4%
COc1ccc(NC(=O)c2ccccc2NS(=O)(=O)c2ccc(C)cc2)c([N+](=O)[O-])c1	-6.0%	0.5%
COc1cc(OC)cc(-c2cc3nc(C)c(CCC(=O)Nc4ccc(C(C)=O)cc4)c(C)n3n2)c1	-4.6%	-6.7%

Remaining list, next part
SMILES	GCN5L2 inh	FEN1 inh
COc1cc(C=O)ccc1OCCSc1ccc(C)cc1	-10.0%	-0.8%
CCOc1ccc(Cl)cc1S(=O)(=O)N1CCC(C(=O)N2CCCC2)CC1	1.6%	-0.6%
Cc1cc(C)n2nc(C(=O)OCCOc3ccc(Br)cc3)nc2n1	-4.0%	-5.2%
C[C@H](CO)N1C[C@H](C)[C@@H](CN(C)S(=O)(=O)c2ccc(F)cc2)Oc2ccc(NC(=O)Nc3ccc4c(c3)OCO4)cc2C1=O	-5.6%	-11.9%
COC(=O)c1sccc1NC(=O)c1csc2c1CCCC2	0.0%	-25.6%
Cc1ccc(NC(=O)CN(C)C(=O)Cn2ccsc2=N)cc1	-11.7%	-0.3%
O=Nc1onc(-c2ccc([N+](=O)[O-])cc2)c1NO	-13.3%	1.7%
CC(C(=O)N1CCN(c2ccccc2)CC1)N1C(=O)C2CC=CCC2C1=O (configuration not stated)	0.8%	-16.0%
O=C(NCCN1C(=O)S/C(=C/c2ccccc2)C1=O)C1CCCN1C(=O)c1cccs1 (configuration not stated)	1.5%	-8.7%
CN(C)CCNC(=O)/C(=C/c1ccc(-c2cccc(Cl)c2)o1)NC(=O)c1ccccc1	-9.1%	-13.7%
O=C(NCCc1ccccc1)C1CCC(CNS(=O)(=O)c2ccc(Cl)cc2)CC1 (configuration not stated)	-6.4%	-9.6%
CCOC(=O)c1c(S(=O)(=O)NCCc2ccco2)c(C)n(C)c1C	-0.4%	5.5%
CCNc1nc(SCC(=O)OC)nc(N(C)C)n1	-2.9%	-2.3%
COc1ccc(C(=O)c2no[n+]([O-])c2C(=O)c2ccc(OC)cc2)cc1	?	-10.0%
COC(=O)c1ccc(NC(=O)C(C)N2C(=O)c3ccccc3C2=O)cc1 (configuration not stated)	0.3%	3.2%
CN(C(=S)NCCN1CCOCC1)C(c1ccccc1)c1ccccc1	0.2%	-9.6%
O=C(c1ccc(NC(=S)Nc2ccc(F)cc2F)cc1)N1CCOCC1	-21.7%	13.8%
Cc1ccn(CC(=O)N2CCCC(N3CCN(c4cccc(Cl)c4)CC3)C2)n1 (configuration not stated)	-13.9%	-5.9%
Cc1noc(C)c1CSc1nnc(-c2cc(Cl)ccc2Cl)n1N	-5.3%	10.1%
CC(=O)N/N=C(\C)c1ccc(Br)cc1Br	-5.4%	-3.1%
Cc1cc(C)nc(Oc2ccc(Br)cc2Br)n1	-1.4%	4.7%
COC(=O)Cc1ccc(OC(=O)C2CCN(S(=O)(=O)c3ccc(OC)c(OC)c3)CC2)cc1	1.2%	9.5%
O=[N+]([O-])c1cc(Cl)ccc1NCCNS(=O)(=O)c1ccccc1	-6.0%	-4.3%

Screening data deposited in PubChem BioAssay by National Center for Advancing Translational Sciences (NCATS).
